NPSR antag – antagonists of human neuropeptide S receptor cAMP signaling; Q6W5P4; CHO-NPSR cells, cAMP TR-FRET, antagonist mode; Potency, µM (top dose mostly 38.3 µM), without a hit: at the highest dose activity change, negative = inhibition, usual class: inhibitors; actives 1% (n = 220,000); AID 1461; also: % is scaled to controls: 0 for no effect and ±100 for the full control effect; nearly all actives have a fitted effect of over 50% in size; many of its hits are not listed in these tables
IMPase Li cell – IMPase inhibition in cells with lithium potentiation | Potency, µM (doses to about 59.4 µM), for inactives: at the highest dose activity, negative = IMPase inhibition, most hits filed as inhibitors | CHO-M1 cells, IP1 TR-FRET (IP-One), carbachol + lithium | actives 0.35% (n = 210,000);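 also: IP1 builds up when IMPase is blocked and the TR-FRET signal falls; plate controls were basal vehicle for no effect and high inhibitor control for full effect; nearly all actives have a fitted effect of over 50% in size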
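Lithium-sensitised IP1 accumulation assay; M1-expressing CHO cells treated 30 min at 37C with compound. Competitive antibody detection by time-resolved FRET followed a 10 min room-temperature lysis step.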
Epigenetic reg – regulators of epigenetic silencing causing reporter derepression in mouse cells; murine LDR cells, GFP reporter derepression, 30 h; Potency, µM (titrated, usually from 53.9 µM), inactives show at the highest dose GFP activation, actives largely listed as activators; actives 0.2% (n = 280,000); also: % of control where 0% means no effect; nearly all actives have a fitted effect of over 60% in size
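Murine LDR cells carrying a silenced, genomically integrated CMV-driven GFP reporter were exposed to compound for 30 hours at 37 C. After PBS washes, GFP-positive cells (20–120 um objects) were counted by laser-scanning microplate cytometry.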
RGS12 GoLoco inh – RGS12 GoLoco-Gai1 interaction inhibition; actives 0.44% (n = 230,000); Potency, µM (titrated, usually from 61.6 µM), without a hit: at the top dose activity, negative = inhibition, most hits filed as inhibitors; Gai1:RGS12 GoLoco peptide FP, rhodamine, 10 min; AID 880; active = well fitted inhibition curve with a large enough effect, not every such curve was filed as active; inactive = no such curve, though single readings can be large or run the other way; also: % is scaled to controls: 0 for no effect and ±100 for the full control effect; nearly all actives have a fitted effect of over 30% in size; many of its hits are not listed in these tables
Target sequence (P63096 whole entry, looked up): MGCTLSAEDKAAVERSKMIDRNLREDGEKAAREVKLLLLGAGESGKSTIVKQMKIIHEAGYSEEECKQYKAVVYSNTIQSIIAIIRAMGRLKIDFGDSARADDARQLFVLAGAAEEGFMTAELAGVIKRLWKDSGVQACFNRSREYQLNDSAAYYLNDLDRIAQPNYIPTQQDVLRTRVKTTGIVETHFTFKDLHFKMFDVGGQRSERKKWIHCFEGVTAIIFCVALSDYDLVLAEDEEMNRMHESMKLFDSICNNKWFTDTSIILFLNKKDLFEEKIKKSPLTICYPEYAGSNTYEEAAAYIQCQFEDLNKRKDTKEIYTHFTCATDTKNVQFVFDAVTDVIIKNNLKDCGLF
KinaseGlo FLuc – counter-screen: inhibitors of Kinase-Glo firefly luciferase | Q27757 | Kinase-Glo luciferase, ATP luminescence, 8 min | Potency, µM (titrated, usually from 38.3 µM), inactives show at the top dose activity change, negative = inhibition, usual class: inhibitors | actives 0.28% (n = 200,000) | AID 1379; also: % is scaled to controls: 0 for no effect and ±100 for the full control effect; nearly all actives have a fitted effect of over 60% in size
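Substrate mix (final 50 mM imidazole pH 7.2, 50 mM KCl, 7 mM MgCl2, 10 uM ATP, 0.01% Tween 20, 0.05% BSA) plus pin-tool compound, then Kinase-Glo detection mix; 8 min ambient, luminescence read.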
RECQ1 inh – RECQ1 (human) helicase inhibition | RECQ1 DNA unwinding, red fluorescence kinetic read | Potency, µM (top dose mostly 57.3 µM), for inactives: top-dose activity, negative = inhibition, usual class: inhibitors | actives 0.54% (n = 240,000);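 also: plate controls were vehicle for no effect and no enzyme for full effect; nearly all actives have a fitted effect of over 30% in size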
Target sequence (P46063 whole entry, looked up): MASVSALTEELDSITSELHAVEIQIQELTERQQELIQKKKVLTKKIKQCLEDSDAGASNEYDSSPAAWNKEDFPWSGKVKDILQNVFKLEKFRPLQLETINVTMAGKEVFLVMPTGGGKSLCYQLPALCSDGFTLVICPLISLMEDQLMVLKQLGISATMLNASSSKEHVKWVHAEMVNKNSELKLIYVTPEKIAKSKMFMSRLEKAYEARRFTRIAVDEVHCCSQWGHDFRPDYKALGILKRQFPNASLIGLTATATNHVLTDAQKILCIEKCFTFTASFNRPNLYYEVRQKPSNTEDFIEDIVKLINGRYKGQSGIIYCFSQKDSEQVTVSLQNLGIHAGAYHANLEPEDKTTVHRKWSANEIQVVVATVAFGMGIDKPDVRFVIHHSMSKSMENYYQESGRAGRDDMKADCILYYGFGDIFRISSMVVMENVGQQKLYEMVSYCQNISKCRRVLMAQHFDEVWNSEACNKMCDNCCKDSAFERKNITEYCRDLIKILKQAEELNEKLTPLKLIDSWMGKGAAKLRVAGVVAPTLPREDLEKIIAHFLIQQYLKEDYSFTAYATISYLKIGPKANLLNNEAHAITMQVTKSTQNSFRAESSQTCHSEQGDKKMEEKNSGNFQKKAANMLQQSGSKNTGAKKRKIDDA
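RECQ1T1 50 nM; forked duplex (20 bp + 30-nt ss tails) 200 nM, ATP 2 mM final; pH 8.0, 2 mM MgCl2, 2.5 ug/ml poly(dI-dC); 15 min compound preincubation; discontinuous kinetic read over 2 h at RT.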
SMN2 splice up – SMN2 splice variant enhancement; HEK293 SMN2-luciferase splicing reporter, luminescence, 30-36 h; Potency, µM (top dose mostly 46.1 µM), without a hit: top-dose activity change, positive = activation, usual class: activators; actives 2.8% (n = 210,000); also: % of control where 0% means no effect; nearly all actives have a fitted effect of over 55% in size
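HEK293 cells carry an SMN2 […]–luciferase reporter in which exon 7 inclusion puts luciferase in frame. Cells were plated 10-12 h before compound addition, then incubated 30-36 h at 37C. ONE-Glo luminescence was read; sodium butyrate at 4.5 mM final served as control.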
* hit, by the source's call; i = inactive; ? = inconclusive; . = no result given; [ ] = another dose, or the depositor's remark. Unless noted, calls follow the shape of the dose curve; as a rule, active = well fitted curve in the direction sought with a large enough effect; inconclusive = small, poorly fitted or top-dose-only effect, or another doubt; inactive = no such curve, though single readings can be large; an effect the other way counts as inactive or inconclusive. Potency is read from the fitted curve at half-maximal effect. This is a subset; rates above refer to the full screens.

SMILES	NPSR antag	IMPase Li cell	Epigenetic reg	RGS12 GoLoco inh	KinaseGlo FLuc	RECQ1 inh	SMN2 splice up
CC(=O)Nc1ccccc1/C=C/c1ccc2c(C)ccc(O)c2n1	-8%	-4%	-3.2%	2%	2%	-4%	-16%
C=CCN(CC=C)CCOc1ccccc1[N+](=O)[O-]	-1%	11%	-0.7%	3%	2%	-4%	-3%
CCCS(=O)(=O)N1CCN(C(=O)COc2ccc(-c3ccccc3)cc2)CC1	15%	7%	-1.0%	0%	1%	0%	-36%[inhibitor]
CC(=O)c1c(O)c2ccccc2n(C)c1=O	-10%	-4%	2.0%	5%	0%	-6%	.
N#C/C(=C/c1ccncc1)c1nc2ccccc2s1	2%	10%	7.5%	27%	-5%	?	2%
O=Cc1ccc(Oc2ncccn2)cc1	29%	7%	0.0%	-14%	-2%	0%	-27%
CCCc1nc2c(=O)n(C)c(=O)[nH]c2n1CCC	-9%[46.1 µM]	-3%[38.3 µM]	-1.7%	-1%	-1%	i	3%
CN1CCN(c2c(F)cc3c(=O)c(C(=O)O)cn(CCF)c3c2F)CC1	-6%	.	1.1%	11%	.	-3%	.
N#Cc1ccc(-c2nc3cc(C#N)c(C#N)cc3nc2-c2ccccc2)cc1C#N	12%	-7%	2.1%	-8%	5%	-7%	-22%
COC(=O)CCCC1=CC2=CC(=O)C(C)(OC(=O)c3cccs3)C(=O)C2=CN1Cc1ccco1 (stereo unspecified)	-8%	3%	-2.3%	1%[14.2 µM]	-1%[7.66 µM]	?	-3%[9.22 µM]
CC(=O)Nc1ccc(N2CCc3c(C)c(C#N)c4nc5ccccc5n4c32)cc1	-1%	-18%	?	5%	-1%	-1%	17%
O=C(CCc1ccc(S(=O)(=O)NC2CCCCC2)cc1)NCc1ccccc1	-12%[46.1 µM]	23%[38.3 µM]	-0.7%	0%	-2%	8%	3%
CN(Cc1nccn1C)C(=O)c1cc(COc2ccc3ncccc3c2)on1	2%	19%	1.1%	12%	-1%	-4%	.
O=C(CN1CCN(c2ccccn2)CC1)N1c2ccccc2CCc2ccccc21	-8%[46.1 µM]	22%	-1.2%	7%	4%	-9%	-26%
CC(C)Oc1ccc(OCCNC2CCCC2)cc1	-10%[46.1 µM]	28%[38.3 µM]	-1.0%	-16%	-3%	-7%	16%
CC(C)N1C(=O)CC(Nc2cccc3cccc(N)c23)C1=O (stereo unspecified)	-10%	16%	-0.5%	1%	-3%	-1%	-9%
Cc1nnc(C)n1/N=C/c1ccccc1	-6%[46.1 µM]	-10%[38.3 µM]	-2.3%	3%	-3%	-1%	-2%
Cc1sc2ncnc(N(C)CCc3ccccn3)c2c1C	0%	.	0.5%	5%	.	-5%	.
CCCS(=O)(=O)N1CCN(C2Cc3ccccc3C2)CC1	2%	.	-6.7%	8%	.	-9%	.
Cc1cccc(NC(=O)CCc2ccc(S(=O)(=O)NC3CCCCC3)cc2)c1	-16%[46.1 µM]	36%[activator][38.3 µM]	0.1%	1%	-3%	-5%	-1%
COc1ccc(C2/C(=C(/O)c3ccc(OC(C)C)cc3)C(=O)C(=O)N2CCCN2CCOCC2)cc1 (stereo unspecified)	-3%	-8%	0.1%	-21%	3%	-6%	9%
COC(=O)CCC(=O)OC1(C)C(=O)C=C2C=C(C3CC3)N(CCN3CCOCC3)C=C2C1=O (stereo unspecified)	10%	-2%	0.0%	5%[14.2 µM]	-11%[7.66 µM]	2%[11.5 µM]	?
CC(=O)Oc1ccc2c(=O)c(Oc3ccccc3)c(C)oc2c1OC(C)=O	-3%	14%	0.0%	-28%	1%	i	?
O=C(NCc1cccnc1)NC1(C(F)(F)F)Oc2ccc(Cl)cc2O1 (stereo unspecified)	-2%[46.1 µM]	35%[38.3 µM]	0.9%	3%	-2%	i	?
CC(=O)[C@@H]1[C@@H](C(=O)c2ccccc2)[C@]2(C(=O)Nc3ccccc32)[C@H]2C=Cc3cc(F)ccc3N12	-34%	1%	-3.2%	-10%	3%	9%	-6%

An excerpt from above in order of molar mass, low to high.
SMILES	NPSR antag	IMPase Li cell	Epigenetic reg	RGS12 GoLoco inh	KinaseGlo FLuc	RECQ1 inh	SMN2 splice up
CC(C)Oc1ccc(OCCNC2CCCC2)cc1	-10%[46.1 µM]	28%[38.3 µM]	-1.0%	-16%	-3%	-7%	16%
CC(=O)Nc1ccccc1/C=C/c1ccc2c(C)ccc(O)c2n1	-8%	-4%	-3.2%	2%	2%	-4%	-16%
CN1CCN(c2c(F)cc3c(=O)c(C(=O)O)cn(CCF)c3c2F)CC1	-6%	.	1.1%	11%	.	-3%	.

Further entries.
SMILES	NPSR antag	IMPase Li cell	Epigenetic reg	RGS12 GoLoco inh	KinaseGlo FLuc	RECQ1 inh	SMN2 splice up
CCNC(=O)c1c(NC(=O)c2cc(-c3cc(C)ccc3O)n[nH]2)sc2c1CCCC2	-28%	-2%	-1.9%	5%	5%	-2%	8%
O=C1CCCC(=O)C1=Cc1c[nH]c2ccccc12	-11%[46.1 µM]	18%[38.3 µM]	-0.3%	5%	-1%	13%	-17%
CC1(C)Cc2noc(N)c2C(C)(C)N1O	4%[46.1 µM]	3%	0.8%	-9%	-1%	-6%	3%
CN(CC(=O)Nc1ccccc1Oc1ccccc1)Cc1ccccc1F	?	6%	0.0%	-11%	1%	i	-14%
CC(=O)Nc1nc(-c2ccc(Cl)cc2)nc(C)c1C(C)=O	?	12%[38.3 µM]	-14%	12%	2%	-10%	18%
O=C(c1ccco1)N1CCN(Cc2cccc([N+](=O)[O-])c2)CC1	4%	6%	-6.8%	-5%	2%	0%	2%
C=CCN(CC=C)S(=O)(=O)c1ncn[nH]1	4%[46.1 µM]	-10%[38.3 µM]	-1.7%	10%	-4%	-15%	20%
Cc1ccc(-n2c(C)c3c(C)nnc(C)c3c2C)cc1C	-17%[46.1 µM]	46%[activator][38.3 µM]	0.0%	12%	16%	1%	-5%
C=CCc1cccc(/C=N/c2ncccc2O)c1O	-2%[46.1 µM]	3%[38.3 µM]	-0.1%	3%	3%	i	30%
COc1ccc(OC)c(Cc2nnc(CCC(=O)N3CCCCCC3)o2)c1	-29%	13%	-0.1%	7%	-3%	12%	.
CCOc1ccc(C2C(C(=O)/C=C/c3ccco3)=C(O)C(=O)N2CCN2CCOCC2)cc1OC (stereo unspecified)	8%	8%	1.4%	13%	0%	-20%	-13%
CCS(=O)(=O)N1CCN(Cc2ccccc2OC)CC1	-15%[46.1 µM]	14%[38.3 µM]	0.6%	-10%	1%	-10%	1%
CCCCCCn1c(=O)c(-c2ccccc2)c(O)c2ccccc21	-2%[46.1 µM]	15%[38.3 µM]	-3.9%	4%	16%	-9%	25%
O=C(COC(=O)c1ccncc1)c1ccc(Cl)c(Cl)c1	7%	4%	0.0%	19%	-6%	21%	1%
Clc1ccc(Cl)c(OCCCCNCc2ccccc2)c1	-4%	4%	-1.0%	2%	-2%	-2%	-17%
O=C(CNC1CC1)Nc1cc(C(F)(F)F)ccc1Cl	-6%	.	1.0%	-12%	.	-14%	.
CC(=O)Nc1nc(C)c(Oc2ccccc2)c(=O)[nH]1	-4%[46.1 µM]	0%[38.3 µM]	1.0%	8%	-1%	i	-3%
Cc1cccc2cc3c(NC(=O)C(C)C)nn(C)c3nc12	-8%[46.1 µM]	10%[38.3 µM]	-7.2%	9%	3%	3%	-10%
c1cncc(Nc2nc(-c3cccs3)cs2)c1	-1%[46.1 µM]	13%[38.3 µM]	-1.1%	4%	-1%	-13%	11µM*
Clc1ccc(C2C3=C(Nc4ncnn42)c2ccccc2CC3)cc1 (stereo unspecified)	?	25%[38.3 µM]	0.7%	4%	0%	-2%	-13%
CCCCn1c(-c2sccc2C)n[nH]c1=S	16%	10%	0.0%	7%	-3%	4%	.
O=C(c1ccc(F)cc1)C1CCN(CCCCc2ccccc2)CC1	.	7%	1.0%	-5%	-3%	1%	.
COC(=O)c1ccc(NC(=O)CNCc2ccncc2)cc1	16%	-6%	0.0%	-4%	3%	-15%	18%
OC(CN1CCOCC1)c1ccc(F)cc1 (stereo unspecified)	3%	-4%	3.4%	0%	-1%	-3%	-7%
COc1c(OC)c(O)c2c(=O)cc(-c3c(O)cccc3O)oc2c1OC	-4%	4%	1.9%	12%	.	-25%	.

Just SMN2 splice up, for four of the compounds above:
| mol | SMN2 splice up |
| --- | --- |
| CN(CC(=O)Nc1ccccc1Oc1ccccc1)Cc1ccccc1F | -14% |
| CC(=O)Nc1nc(-c2ccc(Cl)cc2)nc(C)c1C(C)=O | 18% |
| O=C(c1ccco1)N1CCN(Cc2cccc([N+](=O)[O-])c2)CC1 | 2% |
| C=CCN(CC=C)S(=O)(=O)c1ncn[nH]1 | 20% |

Carrying on.
SMILES	NPSR antag	IMPase Li cell	Epigenetic reg	RGS12 GoLoco inh	KinaseGlo FLuc	RECQ1 inh	SMN2 splice up
O=C(COC(=O)c1cc(=O)[nH]c2ccccc12)NC1CCCC1	15%	-1%	-0.2%	9%	1%	i	6%
C#CCNC(=O)C1CCN(c2ccc(S(=O)(=O)N3CCOCC3)cc2Cl)CC1	-10%	9%	-1.9%	12%	2%	-13%	.
Cn1c(=O)cc(C(=O)N/N=C/c2ccc(F)cc2)[nH]c1=O	4%	.	0.0%	11%	.	-5%	.
CCC(C)(C)C1CCC2(CC1)NC(=S)N(c1ccccc1)N2 (stereo unspecified)	-7%	.	0.0%	3%	.	-1%	.
Cc1ccc(NC(=O)CCNCc2ccco2)cc1S(=O)(=O)N(C)C	14%	17%	-2.8%	-5%	2%	-3%	17%
COc1ccc(-c2cc(-c3nnc(COC(=O)CC4CCCC4)o3)c3ccccc3n2)cc1OC	13%	-6%	-3.2%	1%	3%	0%	-10%
OC1COC(OCC2OC(OCc3ccccc3)C(O)C(O)C2O)C(O)C1O (stereo unspecified)	-24%	2%	-0.2%	-6%	.	-4%	.
O=C(NNc1nc2c(F)cccc2s1)C1COc2ccccc2O1 (stereo unspecified)	3%	-4%	-3.5%	3%	-1%	2%	18%
O=S(=O)(c1ccccc1F)N1CCN(Cc2nc3ccccc3[nH]2)CC1	8%[46.1 µM]	33%[38.3 µM]	2.0%	-3%	-4%	-2%	2%
CCC1CCCCN1C(=O)COc1c(Br)cc(Br)c2cccnc12 (stereo unspecified)	-45%	?	0.1%	10%	1%	i	-17%
O=C(NNc1nc(-c2ccccc2)cs1)c1ccc(F)cc1	-4%	-7%	-0.4%	7%	2%	-3%	-88%[inhibitor]
COC(=O)CCCC1=CC2=CC(=O)C(C)(OC(=O)c3cccs3)C(=O)C2=CN1CCc1ccccn1 (stereo unspecified)	11%	2%	-1.6%	-9%[14.2 µM]	-4%[7.66 µM]	-1%[11.5 µM]	-2%[9.22 µM]
Cn1c(-c2ccc3c(c2)OCO3)cnc1NCc1ccccc1Cl	-42%	25%	-6.7%	10%	-1%	i	?
Cc1cccc(N2CCN(CC(O)COc3ccccc3Cl)CC2)c1 (stereo unspecified)	?	.	11%	-7%	.	i	.
